T cruzi repl: blocks replication of Trypanosoma cruzi; inhibition, % (test concentration not listed); T. cruzi beta-gal in NIH3T3, luminescence, 90 h; 1.4% of 300,000 active;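 active means mean inhibition across valid replicates above about 55%, limit read from the data; inconclusive means mean below that limit but half or more replicates reach it; inactive means mean below it, under half of replicates reach it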;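 further: signal also drops with host cell toxicity which is not excluded here; 0% = plate median of DMSO wells and 100% = zero luminescence signal; higher percent means less beta-gal luminescence so fewer parasites; stock transfer was 50 nL into about 50 µL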
ALR H2O2 inh: human ALR oxidase inhibition via reduced H2O2; P55789; purified ALR, DTT oxidation, H2O2 HRP-luminol luminescence; inhibition, % (test concentration not listed); 3.8% of 290,000 active; AID 485317;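 active means mean and each replicate at 75% or more; inconclusive means only one of the two met; inactive means neither met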;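 further: stock transfer was 7.5 nL into about 7.5 µL; 0% = neutral wells and 100% = wells with inactivated enzyme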
Target sequence (P55789 whole entry, looked up): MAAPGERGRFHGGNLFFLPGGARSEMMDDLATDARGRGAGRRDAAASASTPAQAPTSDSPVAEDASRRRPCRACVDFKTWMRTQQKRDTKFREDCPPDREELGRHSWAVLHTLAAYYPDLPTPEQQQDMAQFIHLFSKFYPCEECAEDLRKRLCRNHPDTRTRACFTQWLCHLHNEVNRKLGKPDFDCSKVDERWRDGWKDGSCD
FGF22 binding: shifts melting point of recombinant human FGF22. Q9HCT0. recombinant FGF22 thermal shift, SYPRO orange fluorescence; percent of sucrose octasulfate shift, DMSO zero. calls only at 9.99 µM. 1.5% of 340,000 active;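 active means melting point raised past a set limit in the mean and every replicate; inconclusive means no clear call; three in four hits are not shown here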
Target sequence (Q9HCT0 whole entry, looked up): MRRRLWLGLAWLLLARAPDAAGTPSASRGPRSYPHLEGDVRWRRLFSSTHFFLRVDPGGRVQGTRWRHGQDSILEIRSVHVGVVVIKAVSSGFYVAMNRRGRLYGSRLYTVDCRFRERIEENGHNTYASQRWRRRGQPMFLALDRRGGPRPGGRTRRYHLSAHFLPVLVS
RanGTP-Impb inh: inhibitors of RanGTP-importin-beta interaction, primary screen, biochemical, FRET, CFP-Ran, YFP-importin-beta, homogeneous | AID 2216 | 1.1% of 300,000 active | cell-free CFP-Ran/YFP-importin-beta FRET ratio | inhibition, % (test concentration not listed);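 active means most replicates above 15%; inconclusive means exactly half above 15%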;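 further: 0% = DMSO wells and 100% = Ran loaded with GDP instead of GTP; wells of about 40 µL received 100 nL stock; the first replicate is given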
Calb FLC: C. albicans growth modulation with fluconazole; 0.57% of 300,000 active; growth inhibition, % (test concentration not listed); C. albicans CaCi-2 (fluconazole-resistant clinical isolate) + fluconazole, Alamar Blue growth, 48 h;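 active means most replicates above 75%; inconclusive means exactly half above 75%; inactive means most below 75%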;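 further: all wells also contain fluconazole at 8 µg/ml as a sub-toxic cotreatment; 0% = median of DMSO wells and 100% = median of geldanamycin control wells; wells of about 8 µL received 7.5 nL stock; the first replicate is given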
AF4-AF9 inh: inhibitors of human MLL-AF4/AF9 interaction; inhibition, % at 10 µM; AlphaScreen, biotin-AF4 peptide binding to FLAG-AF9; 0.47% of 350,000 active;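 active means every replicate reaching a set inhibition limit, whatever the replicate mean, cut at about 25% in these data; inconclusive means mean inhibition reaches that limit but some replicates miss it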;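 further: 0% = plate neutral control median and 100% = total signal loss; the record names both 10 and 1 µM as test concentration; the first replicate is given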
Target sequence (P42568 whole entry, looked up): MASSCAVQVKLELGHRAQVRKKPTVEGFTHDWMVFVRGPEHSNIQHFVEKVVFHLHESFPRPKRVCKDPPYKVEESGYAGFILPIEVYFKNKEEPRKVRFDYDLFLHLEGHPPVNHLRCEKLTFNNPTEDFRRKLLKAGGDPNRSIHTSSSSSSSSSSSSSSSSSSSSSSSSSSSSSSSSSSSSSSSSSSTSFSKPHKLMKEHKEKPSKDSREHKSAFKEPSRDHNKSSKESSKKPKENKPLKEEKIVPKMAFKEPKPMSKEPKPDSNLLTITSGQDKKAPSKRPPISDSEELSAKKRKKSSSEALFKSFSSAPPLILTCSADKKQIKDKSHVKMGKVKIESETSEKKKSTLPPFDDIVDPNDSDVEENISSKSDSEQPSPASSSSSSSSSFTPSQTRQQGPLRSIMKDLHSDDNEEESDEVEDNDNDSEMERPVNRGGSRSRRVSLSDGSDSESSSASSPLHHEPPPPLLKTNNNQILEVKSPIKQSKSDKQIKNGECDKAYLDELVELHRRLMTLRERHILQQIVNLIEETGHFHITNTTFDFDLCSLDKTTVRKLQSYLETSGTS
Beta apoptosis: blocks beta cell apoptosis. INS-1E cytokine-induced death, ATP luminescence, 48 h; percent of positive-control rescue, neutral wells zero. protection from apoptosis, % (test concentration not listed). 0.8% of 300,000 active;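 active means all replicates at 75% or more, or half of them and the mean; inconclusive means half reach 75% but not the mean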;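 further: 0% = cytokine-treated negative control wells and 100% = positive control rescue; higher means more ATP so stronger rescue from cytokine killing; wells of about 40 µL received 100 nL stock; the first replicate is given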
rRNA inh HTS: inhibitors of bacterial rRNA selective over humanized ribosomes. E. coli WT GFP vs humanized-ribosome RFP mutants, fluorescence, 24 h; hits give low values; DMSO median 0, no signal -100. GFP signal change (wild-type ribosome), % (test concentration not listed). 1.6% of 350,000 active;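 active means significant combined selectivity score with lowered wild-type GFP, culture density cut under 30%, mutant RFP and density less affected; inactive means any of these conditions unmet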; further: one replicate is shown; some compounds called inactive have numbers as strong as hits
rRNA inh HTS OD600: recorded beside rRNA inh HTS, whose call it bears; OD600 change, %; measured here: OD600 growth;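 optical density of the mix in the first replicate; 0 = DMSO median and -100 = no signal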
rRNA inh HTS RFP: further read-out of rRNA inh HTS, marked with its call; RFP signal change, %; measured here: RFP humanized mutant strains;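 first replicate; 0 = DMSO median and -100 = no signal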
An asterisk follows results filed as active.

How did C/C(=N\NC(=O)c1ccc(Cn2cc(Br)cn2)o1)c1cccc(NC(=O)C(C)(C)C)c1 do in these assays?
T cruzi repl: 6; ALR H2O2 inh: -1; RanGTP-Impb inh: -0.4; Calb FLC: inconclusive; Beta apoptosis: 11

What do the screens show for `COC(=O)c1ccc(NC(=O)CSc2nnc(Cc3cccn3C)n2-c2ccc(F)cc2)cc1`?
T cruzi repl: 0; ALR H2O2 inh: 6; FGF22 binding: inactive; RanGTP-Impb inh: -1.7; Calb FLC: -4; AF4-AF9 inh: 3.2; Beta apoptosis: -1; rRNA inh HTS: 1; rRNA inh HTS OD600: -1; rRNA inh HTS RFP: -3.6

Results for O=C(c1nnc(Cc2ccc(Cl)cc2)o1)N1CCOCC1 ?
T cruzi repl: -6; FGF22 binding: inactive; RanGTP-Impb inh: inconclusive; Calb FLC: -1; AF4-AF9 inh: -7.7; Beta apoptosis: -6; rRNA inh HTS: 3; rRNA inh HTS OD600: 2; rRNA inh HTS RFP: -0.2

What do the screens show for `N#CCc1nn2c3c(cnc2c1C#N)C(=O)CCC3`?
T cruzi repl: 5; ALR H2O2 inh: -6; FGF22 binding: inactive; RanGTP-Impb inh: -17; Calb FLC: 2; AF4-AF9 inh: 1.8; Beta apoptosis: 1; rRNA inh HTS: 8; rRNA inh HTS OD600: 9; rRNA inh HTS RFP: 1.2

Results for Cn1c(Br)nc2c1c(=O)n(CC(O)COc1ccccc1)c(=O)n2C (stereo not given) ?
T cruzi repl: 2; ALR H2O2 inh: -13; RanGTP-Impb inh: -2.9; Calb FLC: 4; Beta apoptosis: 1

How did CC(C)C(=O)NC(NC(=S)NC1CCS(=O)(=O)C1)C(Cl)(Cl)Cl (stereo not given) do in these assays?
T cruzi repl: -19; FGF22 binding: inactive; RanGTP-Impb inh: 2.9; Calb FLC: -13; AF4-AF9 inh: -1.6; Beta apoptosis: -8; rRNA inh HTS: 4; rRNA inh HTS OD600: 8; rRNA inh HTS RFP: -1.0

Results for CC1CN(C(=O)COC(=O)c2cccs2)CC(C)O1 (stereo not given) ?
T cruzi repl: -2; ALR H2O2 inh: -4; RanGTP-Impb inh: -1.8; Calb FLC: -4; Beta apoptosis: 6

How did CCOC(=O)C(NC(=O)c1ccccc1)(Nc1cccc(C)n1)C(F)(F)F (stereo not given) do in these assays?
T cruzi repl: -3; ALR H2O2 inh: -2; FGF22 binding: inactive; RanGTP-Impb inh: -0.4; Calb FLC: -8; AF4-AF9 inh: 1.0; Beta apoptosis: -9; rRNA inh HTS: -9; rRNA inh HTS OD600: -5; rRNA inh HTS RFP: 4.4

What do the screens show for `CCOC(=O)c1c(NC(=O)C2CCCCC2)sc2c1CCN(C(C)C)C2`?
T cruzi repl: -14; ALR H2O2 inh: 3; FGF22 binding: inactive; RanGTP-Impb inh: 40*; Calb FLC: -11; AF4-AF9 inh: 0.8; Beta apoptosis: 6; rRNA inh HTS: 3; rRNA inh HTS OD600: -7; rRNA inh HTS RFP: 0.3

Results for CN1CCCCCC1=NC1=C(C#N)CCCC1 ?
T cruzi repl: -4; ALR H2O2 inh: 4; RanGTP-Impb inh: 5.2; Calb FLC: -5; Beta apoptosis: -8

Results for O=C(CSc1nnc(C2CC2)n1C1CC1)c1ccc(F)c(F)c1 ?
ALR H2O2 inh: 68; FGF22 binding: inactive; AF4-AF9 inh: -3.3; Beta apoptosis: -1; rRNA inh HTS: -4; rRNA inh HTS OD600: 1; rRNA inh HTS RFP: -1.0

How did CCOC(=O)C1Nc2ccc(C)cc2C2C=CCC12 (stereo not given) do in these assays?
T cruzi repl: 2; ALR H2O2 inh: 10; FGF22 binding: inactive; RanGTP-Impb inh: -2.6; Calb FLC: 1; AF4-AF9 inh: 3.6; Beta apoptosis: -4; rRNA inh HTS: 7; rRNA inh HTS OD600: -2; rRNA inh HTS RFP: 9.0

What do the screens show for `Cc1cc(C)nc(SCC(=O)c2ccc(F)cc2)n1`?
T cruzi repl: 2; ALR H2O2 inh: 20; FGF22 binding: inactive; RanGTP-Impb inh: 3.2; Calb FLC: 9; AF4-AF9 inh: -1.5; Beta apoptosis: -9; rRNA inh HTS: -4; rRNA inh HTS OD600: -4; rRNA inh HTS RFP: -0.7

Results for CC(=O)C1=C(NC(=O)c2ccc(F)cc2)CC2C1C2(C)C (stereo not given) ?
T cruzi repl: -9; RanGTP-Impb inh: -1.8; Calb FLC: -2; Beta apoptosis: 1

Results for O=C(C1CC1)N1CCc2cc(Br)cc(S(=O)(=O)N3CCN(c4ccccn4)CC3)c21 ?
T cruzi repl: 15; ALR H2O2 inh: -1; RanGTP-Impb inh: 0.2; Calb FLC: -9

What do the screens show for `COC(=O)N/N=C/c1cc(OC)c(O)c([N+](=O)[O-])c1`?
T cruzi repl: -5; ALR H2O2 inh: 11; RanGTP-Impb inh: -1.6; Calb FLC: 7; Beta apoptosis: 0

What do the screens show for `O=C(NCCNS(=O)(=O)c1ccccc1)c1ccc([N+](=O)[O-])cc1`?
T cruzi repl: -1; ALR H2O2 inh: -24; FGF22 binding: inactive; RanGTP-Impb inh: -9.7; Calb FLC: 0; AF4-AF9 inh: -0.6; rRNA inh HTS: 5; rRNA inh HTS OD600: 8; rRNA inh HTS RFP: 0.7

How did COc1ccc(OCC(=O)Nc2c(C)ccc3nsnc23)cc1 do in these assays?
T cruzi repl: 4; ALR H2O2 inh: -2; FGF22 binding: inactive; RanGTP-Impb inh: 0.8; Calb FLC: -6; AF4-AF9 inh: -0.6; Beta apoptosis: -1; rRNA inh HTS: 8; rRNA inh HTS OD600: 5; rRNA inh HTS RFP: 1.0

What do the screens show for `COc1ccc(CNC(=O)CCCn2c(=S)[nH]c3cc4c(cc3c2=O)OCO4)cc1`?
T cruzi repl: 4; ALR H2O2 inh: -1; FGF22 binding: inactive; RanGTP-Impb inh: -0.1; Calb FLC: 15; AF4-AF9 inh: -10; Beta apoptosis: -5; rRNA inh HTS: 8; rRNA inh HTS OD600: 4; rRNA inh HTS RFP: 3.0

How did COc1cc(OC)c(OC)cc1CNCCNC(=O)c1nonc1N do in these assays?
T cruzi repl: 9; ALR H2O2 inh: -40; RanGTP-Impb inh: 1.5; Calb FLC: 3; Beta apoptosis: -3

What do the screens show for `CCCNC(=O)Nc1ccc(NC(C)=O)cc1`?
T cruzi repl: -16; FGF22 binding: inactive; Calb FLC: 1; AF4-AF9 inh: -1.8; Beta apoptosis: -6; rRNA inh HTS: 10; rRNA inh HTS OD600: 2; rRNA inh HTS RFP: 3.4

How did CCOC(=O)c1c(C)[nH]c(C(=O)Nc2ccc(C)c(Cl)c2)c1C do in these assays?
T cruzi repl: 29; RanGTP-Impb inh: -1.4; Calb FLC: 5; Beta apoptosis: 7

Results for CCC(C)NC(=O)C1CCN(S(=O)(=O)c2cccs2)CC1 (stereo not given) ?
T cruzi repl: 11; ALR H2O2 inh: -7; RanGTP-Impb inh: 5.1; Calb FLC: -8; Beta apoptosis: -2

Results for Cc1ccc2c(c1)CCCN2C(=O)c1cccs1 ?
T cruzi repl: 15; ALR H2O2 inh: -1; RanGTP-Impb inh: 5.2; Calb FLC: 33; Beta apoptosis: -9

What do the screens show for `Cc1ccc(C(=O)C(C)[n+]2cccc(C(N)=O)c2)cc1` (stereo not given)?
T cruzi repl: -12; ALR H2O2 inh: -12; FGF22 binding: inactive; RanGTP-Impb inh: inconclusive; Calb FLC: -13; AF4-AF9 inh: 0.3; Beta apoptosis: -3; rRNA inh HTS: 14; rRNA inh HTS OD600: 9; rRNA inh HTS RFP: -5.4

Results for COc1cc(/C=N/N2C(=O)CSC2=S)ccc1O ?
T cruzi repl: -18; RanGTP-Impb inh: 3.3; Calb FLC: 19; Beta apoptosis: 1

How did COc1ccc(NC(=O)CSc2nc3sc(C)c(C)c3c(=O)n2Cc2ccco2)cc1 do in these assays?
T cruzi repl: 52; ALR H2O2 inh: 47; FGF22 binding: inactive; RanGTP-Impb inh: 1.8; Calb FLC: -8; AF4-AF9 inh: 9.3; Beta apoptosis: -8; rRNA inh HTS: 3; rRNA inh HTS OD600: 7; rRNA inh HTS RFP: -1.5

Results for COc1ccc(CCC(=O)Nc2ccc(N3CCOCC3)cc2)cc1 ?
T cruzi repl: 8; ALR H2O2 inh: 4; RanGTP-Impb inh: -2.4; Calb FLC: -6; Beta apoptosis: -8

Results for COc1ccc(CCNC(=O)c2cc(C)oc2C)cc1OC ?
T cruzi repl: -15; ALR H2O2 inh: -2; FGF22 binding: inactive; RanGTP-Impb inh: 5.1; Calb FLC: 9; AF4-AF9 inh: -0.9; Beta apoptosis: -3; rRNA inh HTS: 4; rRNA inh HTS OD600: 12; rRNA inh HTS RFP: -0.8

What do the screens show for `O=C(/C=N/O)NCc1cccnc1`?
T cruzi repl: -8; ALR H2O2 inh: 2; FGF22 binding: inactive; RanGTP-Impb inh: 0.9; Calb FLC: -4; AF4-AF9 inh: -36; Beta apoptosis: 1; rRNA inh HTS: 13; rRNA inh HTS OD600: 1; rRNA inh HTS RFP: -7.2

How did Cc1ccc2cc(CN(CCCN3CCOCC3)C(=O)NC3CCCCC3)c(=O)[nH]c2c1C do in these assays?
T cruzi repl: 5; ALR H2O2 inh: 6; RanGTP-Impb inh: -1.8; Calb FLC: 6; Beta apoptosis: -16

Results for Cc1ccc(NC(=O)CSc2nnc(C)n2C2CC2)cc1S(=O)(=O)N1CCOCC1 ?
ALR H2O2 inh: 2; FGF22 binding: inactive; AF4-AF9 inh: -3.6; Beta apoptosis: -5

How did CCCCCCn1c(CN2CCC(C)CC2)nc2c1c(=O)n(C)c(=O)n2C do in these assays?
T cruzi repl: -1; ALR H2O2 inh: -1; FGF22 binding: inactive; RanGTP-Impb inh: -5.8; Calb FLC: -11; AF4-AF9 inh: 3.7; Beta apoptosis: 5; rRNA inh HTS: 6; rRNA inh HTS OD600: 9; rRNA inh HTS RFP: 3.6

How did c1ccc(-c2ccc3c(c2)NCCN3)cc1 do in these assays?
T cruzi repl: 34; FGF22 binding: inactive; RanGTP-Impb inh: -2.7; Calb FLC: -9; AF4-AF9 inh: 9.2; Beta apoptosis: -2; rRNA inh HTS: 6; rRNA inh HTS OD600: 36; rRNA inh HTS RFP: 12

What do the screens show for `COc1ccc(-c2cnc(N)nc2-c2ccc(OC)cc2O)cc1`?
T cruzi repl: 23; ALR H2O2 inh: 45; RanGTP-Impb inh: -1.4; Calb FLC: 8; Beta apoptosis: -16; rRNA inh HTS: -28*; rRNA inh HTS OD600: -14*; rRNA inh HTS RFP: 0.6*

Results for CC(=O)c1c(C)nc(-c2ccc(OCC(=O)Nc3cccc(C)c3C)cc2)n1O ?
T cruzi repl: 0; ALR H2O2 inh: 1; FGF22 binding: active; RanGTP-Impb inh: -4.1; Calb FLC: 3; AF4-AF9 inh: -0.6; Beta apoptosis: -3; rRNA inh HTS: 0; rRNA inh HTS OD600: 3; rRNA inh HTS RFP: -3.7

How did O=C(NCCCN1CCOCC1)C(=O)NCC1OCCN1S(=O)(=O)c1cc(F)ccc1F (stereo not given) do in these assays?
T cruzi repl: -4; ALR H2O2 inh: -13; FGF22 binding: inactive; RanGTP-Impb inh: 3.0; Calb FLC: 5; AF4-AF9 inh: -2.3; Beta apoptosis: -1; rRNA inh HTS: 4; rRNA inh HTS OD600: 0; rRNA inh HTS RFP: 1.6

Source: PubChem BioAssay

An excerpt; count on the stated rates, not on these rows.
